Bioassay records from PubChem BioAssay.
Six1-Eya2 blk – inhibitors of human Six1/Eya2 interaction | activity change, % (concentration not given with the values) | actives 0.56% (n = 360,000) | Q15475+O00167 | AlphaScreen GST-Six1/His-Eya2 binding, biochemical; active compounds read low; control for the full effect not named in the record; in the data active = activity change below about -65%; inconclusive = about -30% to -65%; inactive = above about -30%; further: on the % scale 0 is the no-effect control and ±100 the full control effect
Target sequence (O00167 whole entry, looked up): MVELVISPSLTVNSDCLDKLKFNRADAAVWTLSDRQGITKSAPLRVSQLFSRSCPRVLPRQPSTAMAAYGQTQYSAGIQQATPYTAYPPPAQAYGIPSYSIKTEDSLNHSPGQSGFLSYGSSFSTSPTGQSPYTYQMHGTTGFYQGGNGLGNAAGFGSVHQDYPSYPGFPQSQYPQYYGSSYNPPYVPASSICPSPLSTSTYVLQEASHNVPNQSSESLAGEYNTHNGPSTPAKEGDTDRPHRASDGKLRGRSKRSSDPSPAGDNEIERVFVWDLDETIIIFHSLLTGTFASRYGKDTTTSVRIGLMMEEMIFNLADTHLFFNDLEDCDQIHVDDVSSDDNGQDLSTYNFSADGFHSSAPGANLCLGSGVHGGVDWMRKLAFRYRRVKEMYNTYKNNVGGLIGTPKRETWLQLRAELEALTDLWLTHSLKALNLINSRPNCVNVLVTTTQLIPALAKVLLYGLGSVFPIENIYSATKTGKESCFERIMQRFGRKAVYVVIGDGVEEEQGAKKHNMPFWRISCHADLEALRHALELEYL
Target sequence (Q15475 whole entry, looked up): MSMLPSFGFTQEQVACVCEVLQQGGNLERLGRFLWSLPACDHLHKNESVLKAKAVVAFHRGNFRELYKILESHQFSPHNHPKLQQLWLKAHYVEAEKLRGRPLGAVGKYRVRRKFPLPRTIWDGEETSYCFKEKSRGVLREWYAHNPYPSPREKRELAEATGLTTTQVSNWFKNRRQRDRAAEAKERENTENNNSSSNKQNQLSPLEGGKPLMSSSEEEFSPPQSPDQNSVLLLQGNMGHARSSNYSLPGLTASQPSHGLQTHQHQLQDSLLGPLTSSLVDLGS
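AlphaScreen luminescence read after one hour at 37 °C in darkness. Pin-transferred compounds met GST-Six1 and His-Eya2 protein (5X stock 250 nM/500 nM) plus glutathione donor and Ni-chelate acceptor beads (5X, 50 ug/mL).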
TRPML1 agonist – activates the human TRPML1 channel. TRPML1-expressing cells, Ca2+ dye fluorescence, FDSS; host cell line not named in the record; reference of the full effect not given here. AID 624414. actives 0.12% (n = 410,000). Q9GZU1. activation, % (no concentration beside the values); in the data active = activation above about 50%; inconclusive = about 30% to 50%; inactive = below about 30%; further: 0% is about no effect; the text of the record puts the active cut at 80%
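Tet-induced TRPML1-DL cells, 1,500 per well, cultured overnight, were loaded with a no-wash Ca2+ dye for 45–90 min. Calcium fluorescence was recorded on the FDSS for 110 s after compound addition, before the EC80 agonist (4 uM 54-4) was added.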
PINK1 expr mod – PINK1 expression modulation. PINK1 immunofluorescence, high-content cytometry, 24 h. Potency, µM (series often up to 76.6 µM), for inactives: at the highest dose activation (PINK1 increase), usual class: activators. actives 0.2% (n = 410,000). AID 624263; active = well fitted activation curve with a large enough effect; inconclusive = small, poorly fitted or top-dose-only effect; inactive = flat fitted curve, though single readings scatter; cell line not stated here;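 further: potency means the concentration at half of the fitted maximal effect; % of control where 0% means no effect; nearly all actives have a fitted effect of over 65% in size; a mitochondrial uncoupler was the plate control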
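Measures PINK1 amount and localization on or inside mitochondria by immunofluorescence. Stable cells get compounds at 5 concentrations for 24 hours before fixation and staining; CCCP controls included.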
CtBP-E1A inh – inhibitors of CtBP/E1A interaction. AlphaScreen GST-E1A/His-CtBP binding, 1536-well; active compounds read low; control for the full effect not named in the record. activity change, % (concentration not given with the values). actives 0.49% (n = 340,000). AID 651724; in the data active means activity change below about -65%; inconclusive means about -30% to -65%; inactive means above about -30%; further: on the % scale 0 is the no-effect control and ±100 the full control effect
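Homogeneous bead-based format: GST-tagged E1A captured on glutathione donor beads, His-tagged CtBP on nickel acceptor beads; compounds precede bead addition by 2 h at 37 °C.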
D2 ag – agonists of human D2 dopamine receptor (beta-arrestin); P14416; DiscoveRx PathHunter D2 beta-arrestin, luminescence, 90 min; 100% = 57 uM dopamine signal; activation, % (concentration not given with the values); actives 0.084% (n = 360,000); AID 624465; in the data active = activation above about 40%; inconclusive = about 15% to 40%; inactive = below about 15%; further: compound concentration not given in the record; the text of the record calls up to 30% inactive
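Agonist mode: compounds alone added to overnight-plated D2 PathHunter cells for 90 min at 37 C, with 57 uM final dopamine (EC100) defining full response. Beta-arrestin recruitment detected by chemiluminescent reagent, read after 1 h at ambient temperature.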
TRPML1 blocker – blocks the human TRPML1 channel. activity change, negative = inhibition, % (no concentration beside the values). actives 0.02% (n = 390,000). AID 624415. Q9GZU1. TRPML1-inducible cells, Ca2+ dye fluorescence, FDSS; active compounds read low; inhibition of EC80 agonist-evoked calcium signal; in the data active means activity change below about -50%; inconclusive means about -30% to -50%; inactive means above about -30%;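 further: stimulus is agonist 54-4 at its EC80 concentration; on the % scale 0 is the no-effect control and ±100 the full control effect; compound concentration not given in the record; the text of the record puts the active cut at -80%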
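Tet-induced TRPML1-DL cells loaded with Ca8 no-wash calcium dye were read kinetically on FDSS. Compound addition was followed by EC80 agonist 54-4 (4 uM final); inhibition was read over 110 s.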
An asterisk follows results filed as active; ? = inconclusive; / = not tested or not shown; & = joins results of further samples; [ ] = dose if it differs, or a comment.

Results follow in this order: Six1-Eya2 blk	TRPML1 blocker	TRPML1 agonist	CtBP-E1A inh	D2 ag	PINK1 expr mod
Oc1ccccc1/C=N/n1c(-c2cccs2)n[nH]c1=S
 : -12	6	1.4	-14	5.1	-1.3%
Cc1nnc(NC(=O)CSc2nnnn2Cc2ccccc2)s1
 : -2	60	0.6	5	-3.2	-1.7%
CCOc1ccc(CCNC(=O)C2CCCN(S(C)(=O)=O)C2)cc1OCC (stereo unspecified)
 : 0	-3	0.7	1	8.8	-0.1%
COc1ccc(N2C(=O)CN=C2Nc2cccc(C)c2C)cc1OC
 : -3	-10	-0.2	-7	0.1	1.4%
CC(=O)NCCC1CCN(C(=O)c2cc(COc3ccc(C)nc3)on2)CC1
 : 2	11	1.6	7	9.6	-1.1%
Cc1cccc(N2CCN(S(=O)(=O)c3ccc(-c4cc(C)no4)s3)CC2C)c1 (stereo unspecified)
 : 0	18	-0.2	4	-1.6	-0.9%
Cn1ccnc1SCC(=O)NC1CC1
 : -2	13	1.1	5	1.8	-2.5%
CC1(C(=O)NS(=O)(=O)c2cccc(OC(F)F)c2)CCN1C(=O)c1ccco1 (stereo unspecified)
 : 9	80	3.1	9	-2.0	-1.0%
Oc1ccc(-n2cnnn2)cc1
 : 24	1	-0.8	43	0.3	8.3%[38.3 µM]
O=C(Nc1ccc(Oc2ccc(S(=O)(=O)N3CCOCC3)cn2)cc1)c1ccco1
 : 0	-10	-0.6	2	0.2	2.6%

The list goes on.
Results follow in this order: Six1-Eya2 blk	TRPML1 blocker	TRPML1 agonist	CtBP-E1A inh	D2 ag	PINK1 expr mod
Cc1ccc(C(=O)Nc2ccc(NC(=O)c3ccc(C)o3)cc2)o1
 : -7	4	1.5	-4	-1.5	2.8%
CCOC(=O)c1nc(-c2ccccc2)sc1C(C)=O
 : 14	-15	1.8	8	-0.1	-0.9%
COc1ccc(OC)c(NC(=O)c2cnc(N3CCCCC3)c3ccccc23)c1
 : /	-1	0.0	/	/	4.0%
c1ccc(OCc2nc(-c3ccncc3)no2)cc1
 : 3	22	-1.1	9	-1.7	0.6%
O=C(NCc1ccco1)c1cc2ccccc2c(=O)o1
 : -3	-9	-0.7	10	-1.3	0.2%
COc1cc(C(=O)Nc2cccc(C)c2C)ccc1OCC(=O)N1CCOCC1
 : 10	6	0.3	/	-3.7	-0.5%
CCCCN(CCCC)CCNC(=O)c1cn(CC)c2ccc(S(=O)(=O)N3CCc4ccccc4C3)cc2c1=O
 : 1	17&36	1.1&-1.1	/	-0.8	-1.1%&1.2%
CCN(CC(=O)NC1CCS(=O)(=O)C1)C(=O)C(c1ccccc1)c1ccccc1 (stereo unspecified)
 : 0	-6	0.3	0	-0.5	8.3%[38.3 µM]
COc1cc(OC)cc(C(=O)N[C@H](C(=O)NC23CC4CC(CC(C4)C2)C3)C(C)C)c1
 : -5	6	0.0	1	-4.1	1.4%
Cc1ccc(S(=O)(=O)N(C)c2ccccc2C(=O)N2CCOCC2)cc1
 : -1	4	-0.1	4	-0.3	-1.9%

The list goes on:
Results follow in this order: Six1-Eya2 blk	TRPML1 blocker	TRPML1 agonist	CtBP-E1A inh	D2 ag	PINK1 expr mod
Nc1cc2c(cc1[N+](=O)[O-])OCO2
 : -12	-1	-0.1	-7	0.7	1.6%
COc1ccc(OCC(=O)Nc2ccc(N3CCOCC3)cc2)c([N+](=O)[O-])c1
 : -5	21	2.3	1	10	3.4%
CC1=NNC(=O)C1CC(=O)N/N=C/c1ccncc1 (stereo unspecified)
 : 7	5	1.9	-7	-3.8	-0.6%
Cc1c(Cl)cccc1NC(=S)NCc1ccc(F)cc1
 : -15	2	0.4	-1	1.4	3.5%
CCOC(=O)N1CCN(C(=O)CCCCn2c(=S)[nH]c3ccsc3c2=O)CC1
 : -22	33	1.6	-21	0.6	-1.0%
COc1ccc(C)cc1NC(=O)CCCN1C(=O)C2CC=CCC2C1=O (stereo unspecified)
 : 7	-10	0.2	-2	3.4	0.4%
Cc1ccccc1-c1noc(C2CCCCC2)n1
 : 6	-6	-0.7	4	-1.7	-1.0%
COc1ccc(NS(=O)(=O)c2ccc(NS(=O)(=O)c3cccc(C(=O)O)c3)cc2)cc1
 : -5	-6	-0.1	-9	-0.6	2.0%
COc1ccc(N2CCN(C(=O)c3ccc(Nc4nc5ccccc5n5nnnc45)cc3)CC2)cc1
 : /	0	-0.2	/	/	1.5%
O=C(c1cccn1-c1nnc(N2CCCCC2)s1)N1CCN(c2ccc(Cl)cc2)CC1
 : /	4	2.5	/	/	0.4%

Further structures follow.
Results follow in this order: Six1-Eya2 blk	TRPML1 blocker	TRPML1 agonist	CtBP-E1A inh	D2 ag	PINK1 expr mod
CCOCCc1nn2c(=O)cc(COC(=O)c3ccccc3NC(=O)CC(C)C)nc2s1
 : /	-10	2.6	/	/	1.0%
CC(C)n1ncc(C(N)=O)c1N
 : 4	8	0.2	3	-2.5	0.3%
N#Cc1c(N)nc2c(c1-c1cccs1)CCCC2
 : -4	-28	2.2	/	-3.3	1.2%
CC(C)(C)c1ccc(CSc2nc(N)cc(=O)[nH]2)cc1
 : -10	33	-0.7	-11	-0.1	2.1%
N/C(=N\S(=O)(=O)c1cccs1)c1ccccc1Cl
 : 6	-11	0.2	/	0.0	0.0%
N#CC1(NC(=O)Cn2cc(C(F)(F)F)cc(Cl)c2=O)CCCCC1
 : -2	7	0.3	0	-3.2	-1.4%
CCCn1c(=O)c2ccccc2n2c(SCC(=O)c3cc(C)n(CCOC)c3C)nnc12
 : 3	-20	1.0	4	2.9	7.6%[38.3 µM]
CN(C)c1nc2c(c(=O)n(C)c(=O)n2C)n1CC(=O)c1cccs1
 : 0	-1	-0.4	3	-2.1	1.1%
CC1CCc2nc(NC(=O)c3ccc(S(=O)(=O)N4CCCc5ccccc54)cc3)sc2C1 (stereo unspecified)
 : -2	-15	0.5	1	-0.2	19%[38.3 µM]
OCCn1c(CSc2nnc(-c3ccco3)n2-c2ccccc2)nc2ccc(Cl)cc21
 : 0	-4	-1.3	6	-1.0	-1.6%

Later entries
Results follow in this order: Six1-Eya2 blk	TRPML1 blocker	TRPML1 agonist	CtBP-E1A inh	D2 ag	PINK1 expr mod
CCOC(=O)c1cc2c(ccn2C)n1Cc1cc(C)ccc1C
 : ?	2	0.8	-27	-4.5	4.6%
CCN1/C(=C/c2ccc3cc(C)ccc3[n+]2CC)Sc2cc(C)ccc21
 : -18	-28	25	0	-5.3	?
O=C(CN1CCOCC1)N/N=C/c1ccco1
 : -5	2	0.4	-5	0.4	-1.6%
CCc1ccccc1NC(=S)NCc1ccc2c(c1)OCO2
 : -8	13	1.5	2	0.7	6.3%[38.3 µM]
COc1ccc(OC)c(/C=N/NC(=O)c2ccc[n+](CC(=O)c3ccccc3)c2)c1
 : -6	-11	-0.5	/	-3.1	3.9%
CCN1C(=O)[C@H]2[C@@H](c3ccc(-c4ccc(OC)cc4)c(OC)c3)N[C@@](Cc3ccccc3)(C(=O)OC)[C@H]2C1=O
 : -3	-2	0.1	2	-0.3	1.4%
COC(=O)c1cnn(-c2ccccc2)c1/C=N/NC(=S)Nc1ccc(Cl)cc1
 : -15	7	0.0	-1	-3.3	5.1%
Cc1c(C(=O)NCCc2ccccc2)oc2ccc(S(=O)(=O)N3CCOCC3)cc12
 : 1	-10	1.0	-2	-4.3	2.7%
C=CCC[C@@H](Cc1ccc(F)cc1)C(=O)O[C@H](CNC(=O)[C@@H](CC=C)CC(=O)N[C@H](CO)Cc1ccccc1)c1ccccc1
 : 10	-6	0.4	6	1.1	4.2%
N#Cc1c(N2CCCC(O)C2)nc(N)c2c(N)nc3c(c12)CC(=O)N3C12CC3CC(CC(C3)C1)C2 (stereo unspecified)
 : -23	16	-0.1	-26	-3.5	-4.0%

More records.
Results follow in this order: Six1-Eya2 blk	TRPML1 blocker	TRPML1 agonist	CtBP-E1A inh	D2 ag	PINK1 expr mod
CN(C(=O)c1cc2c(s1)-c1ccc(Cl)cc1SC2)c1cccc(C(F)(F)F)c1
 : /	9	3.6	/	/	3.5%
Cc1ccc(-c2nnc(OCC3CCCO3)c3ccccc23)cc1 (stereo unspecified)
 : 1	-15	1.0	7	-0.1	0.0%
N#CC(c1ccc(=O)[nH]n1)c1ccc(Cl)cc1Cl (stereo unspecified)
 : 8	-4	-0.6	3	-0.3	-0.9%
Cc1ccc(-n2cc(C(=O)OCc3ccc(Cl)cc3)c3ccccc3c2=O)cc1
 : /	-9	0.9	/	/	0.3%
Cc1ccc(C(=O)NNC(=O)c2cccc(C)c2)cc1
 : -2	-25	2.4	5	2.5	2.6%
Cc1cc2n(n1)C(c1ccc(N(C)C)cc1)Nc1ccccc1-2 (stereo unspecified)
 : -21	9	0.4	-29	-1.2	-2.2%[38.3 µM]
O=C(COC(=O)c1ccc(S(=O)(=O)N2CCCC2)cc1)NCc1ccc(Cl)cc1
 : -2	2	1.2	-3	-1.9	1.1%
COCCOC(=O)C(CC(=O)O)NCc1ccco1 (stereo unspecified)
 : 0	/	/	12	-4.1	-1.2%
COc1ccc(-c2cnc3nc[nH]c(=O)c3n2)cc1
 : -10	-16	-0.4	-8	-2.8	2.1%
Cc1sc2nc(CSC(C)C(=O)Nc3ccc(C(N)=O)cc3)[nH]c(=O)c2c1C (stereo unspecified)
 : -12	-1	0.0	3	-6.9	3.0%

Reprinted from the part before: 4 entries, followed by the next part.
Results follow in this order: Six1-Eya2 blk	TRPML1 blocker	TRPML1 agonist	CtBP-E1A inh	D2 ag	PINK1 expr mod
O=C(COC(=O)c1ccc(S(=O)(=O)N2CCCC2)cc1)NCc1ccc(Cl)cc1
 : -2	2	1.2	-3	-1.9	1.1%
COCCOC(=O)C(CC(=O)O)NCc1ccco1 (stereo unspecified)
 : 0	/	/	12	-4.1	-1.2%
COc1ccc(-c2cnc3nc[nH]c(=O)c3n2)cc1
 : -10	-16	-0.4	-8	-2.8	2.1%
Cc1sc2nc(CSC(C)C(=O)Nc3ccc(C(N)=O)cc3)[nH]c(=O)c2c1C (stereo unspecified)
 : -12	-1	0.0	3	-6.9	3.0%
CCOC(=O)c1cc(C(C)C)sc1NC(=O)COC(=O)CCS(=O)(=O)c1ccccc1
 : 0	3	2.2	2	1.8	0.5%
CC(/C=N/N1CCN(c2ccccn2)CC1)=C\c1ccccc1
 : -14	-3	3.0	-9	0.0	9.9%
Cn1c(=O)c2sccc2n2c(CCCC(=O)NCc3ccccc3)nnc12
 : /	-4	1.9	/	/	-0.1%
COc1ccc(Cn2c(=O)[nH]c3cc(C(=O)N4CCN(c5ccccc5F)CC4)ccc3c2=O)cc1
 : 11	-1	0.5	-6	0.8	7.8%
O=C(Nc1ccncc1)c1cc(-c2ccccc2)nc2ccccc12
 : -3	7	-0.7	-5	-1.9	2.5%

Record cards, as listed above.
Results for O=C(Nc1ccncc1)c1cc(-c2ccccc2)nc2ccccc12 : Six1-Eya2 blk = -3; TRPML1 blocker = 7; TRPML1 agonist = -0.7; CtBP-E1A inh = -5; D2 ag = -1.9; PINK1 expr mod = 2.5%
Results for CC(/C=N/N1CCN(c2ccccn2)CC1)=C\c1ccccc1 : Six1-Eya2 blk = -14; TRPML1 blocker = -3; TRPML1 agonist = 3.0; CtBP-E1A inh = -9; D2 ag = 0.0; PINK1 expr mod = 9.9%
